PrP 5UTR inh = suppresses PrP 5' UTR mRNA reporter expression | cell-based PrP 5' UTR mRNA reporter, plate reader | inhibition, % (concentration not given with the values) | 0.35% of 340,000 active | AID 488862;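 active = every replicate at 50% or more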;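 also: 0 = median of the neutral control wells; tested in H4 reporter cells; numbers are from one replicate; inactives centre near -14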
Mtb hypoxia rep = Mtb hypoxia fluorescent reporter inhibition; M. tuberculosis hypoxia-regulated fluorescent reporter, fluorescence; AID 1159583; 0.1% of 300,000 active; fluorescence inhibition, % (test concentration not listed);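 active = 35 to 45% if threefold the growth effect, above 45% if 1.5-fold the growth effect; inactive = the rest, general growth blockers included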;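 also: wells of about 50 µL received 100 nL stock; 0% = vehicle wells and 100% = reference inhibitor wells; whole bacteria with a GFP reporter of the hypoxia response; strong numbers were not always called active; many hits fall short of the cut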
Sa RN4220 lethal = kills Staphylococcus aureus RN4220; S. aureus RN4220 growth, OD600, 16 h; 0.33% of 330,000 active; inhibition, % (test concentration not listed);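 active = z-score of -3 or lower and OD600 up to 0.18 on both plates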;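 also: plate controls were untreated cells for no effect and reference antibiotic for full effect; stock transfer was 100 nL into about 80 µL; one replicate is shown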
BJeLR viability = BJeLR cell viability loss; 0.17% of 300,000 active; AID 1554; BJeLR (HRASV12) viability, CellTiter-Glo ATP luminescence, 48 h; reference of the scale not given here; inhibition, % (test concentration not listed);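 active = replicate mean above 50%; inconclusive = above 50% but judged a plate artefact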;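 also: 50 nL library stock added to about 25 µL; numbers are from one replicate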
Bead autofluor = flagged as autofluorescent in microsphere protease counterscreen. AID 624483. compound autofluorescence counterscreen, microsphere flow cytometry; stronger effect = higher value. fluorescence intensity (test concentration not listed). 3.1% of 360,000 active;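 active = at least 3 SD above the mean of all compounds, about 16000 in these data; inconclusive = too few beads counted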;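 also: 100 nL of 1 mM stock went into each well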
Sa ugtP lethal = growth inhibition of S. aureus ugtP deletion strain | S. aureus RN4220 ugtP deletion, OD600 growth, 16 h; some inactives read as strong as hits | growth inhibition, % (no concentration beside the values) | 0.54% of 330,000 active;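 active = z-score under -3 and OD600 up to 0.15 on both plates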;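 also: plate controls were untreated wells for no effect and antibiotic for full effect; wells of about 80 µL received 100 nL stock; the first replicate is given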
Mtb hypoxia rep growth = also measured in Mtb hypoxia rep; calls as there; growth inhibition, %; measured here: M. tuberculosis growth (absorbance);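 0% = vehicle and 100% = reference antibiotic; read after six days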
* hit, by the source's call; ? = inconclusive; nt = not tested or not shown; & = joins results of further samples.

SMILES	PrP 5UTR inh	Mtb hypoxia rep	Mtb hypoxia rep growth	Sa RN4220 lethal	BJeLR viability	Bead autofluor	Sa ugtP lethal
COc1ccc(S(=O)(=O)N2CCC(CN3C(=O)c4cccc5cccc(c45)C3=O)CC2)cc1	4	-8	0	-2.5	-5	2043	-1
CC(C)(C)NC(=S)NN=Cc1cc(Br)c(O)c(Br)c1	nt	3	5	25	nt	nt	4
CCOc1ccc(S(=O)(=O)N(C)c2ccc(OCC(=O)NCCc3ccc(OC)cc3)cc2)cc1	-42	-7	3	0.7	8	4718	5
CC(C(=O)NCCc1ccc(S(N)(=O)=O)cc1)N1C(=O)CC(C)(C)Sc2ccccc21 (stereo unspecified)	-10	-9	-9	0.4	3	3348	12
CCn1c(SCC(=O)NC2CC2)nnc1-c1ccccn1	-25	2	2	6.5	-10	6552	0
Cc1ccc(-c2csc(/C(C#N)=C/Nc3ccccc3SC(F)(F)F)n2)cc1	-10	-8	-7	3.0	-11	2317	6
CCCn1c(SCC(=O)NC2CCCC2)nnc1-c1cccnc1	-13	-9	-2	-0.2	-5	5487	9
Cc1ccc(N2CC(C(=O)NCCCn3ccnc3)CC2=O)cc1 (stereo unspecified)	-20	-2	8	-0.4	3	16950*	2
Cn1c(-c2ccccc2)c[n+]2c1CCCCC2	-9	16	9	4.9	-4	3303	5
CC1CC(C)CN(CCOc2cccc(Cl)c2Cl)C1 (stereo unspecified)	-4	8	1	1.9	-33	2011	-2
CCN1CCN(CCNC(=O)c2ccc3c(c2)N(Cc2cccc(Cl)c2)C(=O)c2ccccc2S3=O)CC1 (stereo unspecified)	-12	0	-8	1.9	5	4438	8
NS(=O)(=O)c1cccc(NC(=O)CC23CC4CC(CC(Br)(C4)C2)C3)c1	-9	2	6	-1.2	-5	5212	11
CCCCCN(C(=O)COC(=O)c1ccc(C)cc1)c1c(N)n(CCCC)c(=O)[nH]c1=O	8	-5	-6	-1.3	nt	2958	3
O=c1[nH]cnc2c1N=C(c1cccc([N+](=O)[O-])c1)CC(c1ccccc1)N2 (stereo unspecified)	-20	6	1	-3.1	3	3334	4
COc1ccc(C)cc1NC(=O)COC(=O)C1COc2ccccc2O1 (stereo unspecified)	6	11	-1	2.8	nt	?	2
Cc1ccc(S(=O)(=O)NCC(c2ccccc2)N2CCN(CCC#N)CC2)cc1 (stereo unspecified)	-3	nt	nt	1.3	6	3083	-2
Cc1ccccc1CN1CCN(C(=O)CC(C)C)CC1	4	-2	6	-0.7	-3	3836	0
COCCNC(=O)CNC(c1ccccc1)c1ccccc1	nt	4	10	1.4	3	nt	4
Cc1ccc(NC(=O)CSc2nnc([C@H](C)NC(=O)OC(C)(C)C)o2)c(C)c1	-11	-10	13	-4.3	-3	nt	2
CCNC(=O)NC(=O)C(C)OC(=O)[C@H](C)NS(=O)(=O)c1c(C)c(C)cc(C)c1C (stereo partly specified)	-21	-2	4	3.7	0	4476	11
CCN(CC(=O)Nc1cccc(C(C)=O)c1)S(=O)(=O)c1ccccc1	-24	3	-38	6.1	1	2668	17
CNc1nc(N)nc(OC(C(F)(F)F)C(F)(F)F)n1	-20	10	7	-0.1	-4	4364	-1
COCCOC(=O)c1c(C)nc(SCC(=O)Nc2ccc(OC)cc2)c(C#N)c1-c1ccco1	-5	-4	8	-4.5	1	4271	1
COc1ccc(CNC(=O)C(C)NCc2ccc(S(N)(=O)=O)cc2)cc1 (stereo unspecified)	-14	17	4	4.3	-12	3278	6
O=C(NCC1CCCO1)c1ccc(OC2CCN(C(=O)C3CC3)CC2)cc1 (stereo unspecified)	9	-12	0	-0.8	24	4108	-8
Nc1[nH]c(=S)nc2nc(-c3ccccc3)c(-c3ccccc3)nc12	-4	7	13	0.8	-2	4550	-4
Cc1ccc(NC(=O)CSC(C)c2nc3ccccc3c(=O)[nH]2)cc1 (stereo unspecified)	-23	-2	0	-0.7	-2	nt	5
O=C(NCCc1ccc(Cl)cc1)Nc1ccc(F)cc1	-27	12	6	-3.4	-2	4949	-6
CN(C)c1nc(N)nc(CSc2ccccn2)n1	-17	5	6	0.9	0	19921*	5
CNc1nnc(-c2cc3ccccc3oc2=O)s1	-52	0	0	2.1	-9	4100	3

An excerpt from above in order of length of the SMILES, low to high:
SMILES	PrP 5UTR inh	Mtb hypoxia rep	Mtb hypoxia rep growth	Sa RN4220 lethal	BJeLR viability	Bead autofluor	Sa ugtP lethal
CN(C)c1nc(N)nc(CSc2ccccn2)n1	-17	5	6	0.9	0	19921*	5
Cn1c(-c2ccccc2)c[n+]2c1CCCCC2	-9	16	9	4.9	-4	3303	5
COCCNC(=O)CNC(c1ccccc1)c1ccccc1	nt	4	10	1.4	3	nt	4
O=C(NCCc1ccc(Cl)cc1)Nc1ccc(F)cc1	-27	12	6	-3.4	-2	4949	-6
CNc1nc(N)nc(OC(C(F)(F)F)C(F)(F)F)n1	-20	10	7	-0.1	-4	4364	-1
CCCn1c(SCC(=O)NC2CCCC2)nnc1-c1cccnc1	-13	-9	-2	-0.2	-5	5487	9
Cc1ccc(N2CC(C(=O)NCCCn3ccnc3)CC2=O)cc1 (stereo unspecified)	-20	-2	8	-0.4	3	16950*	2
COc1ccc(C)cc1NC(=O)COC(=O)C1COc2ccccc2O1 (stereo unspecified)	6	11	-1	2.8	nt	?	2
Nc1[nH]c(=S)nc2nc(-c3ccccc3)c(-c3ccccc3)nc12	-4	7	13	0.8	-2	4550	-4
CCN(CC(=O)Nc1cccc(C(C)=O)c1)S(=O)(=O)c1ccccc1	-24	3	-38	6.1	1	2668	17
Cc1ccc(S(=O)(=O)NCC(c2ccccc2)N2CCN(CCC#N)CC2)cc1 (stereo unspecified)	-3	nt	nt	1.3	6	3083	-2
NS(=O)(=O)c1cccc(NC(=O)CC23CC4CC(CC(Br)(C4)C2)C3)c1	-9	2	6	-1.2	-5	5212	11
Cc1ccc(NC(=O)CSc2nnc([C@H](C)NC(=O)OC(C)(C)C)o2)c(C)c1	-11	-10	13	-4.3	-3	nt	2
O=c1[nH]cnc2c1N=C(c1cccc([N+](=O)[O-])c1)CC(c1ccccc1)N2 (stereo unspecified)	-20	6	1	-3.1	3	3334	4
COCCOC(=O)c1c(C)nc(SCC(=O)Nc2ccc(OC)cc2)c(C#N)c1-c1ccco1	-5	-4	8	-4.5	1	4271	1
CCCCCN(C(=O)COC(=O)c1ccc(C)cc1)c1c(N)n(CCCC)c(=O)[nH]c1=O	8	-5	-6	-1.3	nt	2958	3
CCNC(=O)NC(=O)C(C)OC(=O)[C@H](C)NS(=O)(=O)c1c(C)c(C)cc(C)c1C (stereo partly specified)	-21	-2	4	3.7	0	4476	11
CCN1CCN(CCNC(=O)c2ccc3c(c2)N(Cc2cccc(Cl)c2)C(=O)c2ccccc2S3=O)CC1 (stereo unspecified)	-12	0	-8	1.9	5	4438	8

The list continues.
SMILES	PrP 5UTR inh	Mtb hypoxia rep	Mtb hypoxia rep growth	Sa RN4220 lethal	BJeLR viability	Bead autofluor	Sa ugtP lethal
Cc1ccc(NC(=O)OCc2cc(-c3ccccc3)on2)cc1	-28	-9	-2	2.7	2	3391	1
CCN1CCN(C(CNS(=O)(=O)c2ccc(Cl)cc2)c2cccnc2)CC1 (stereo unspecified)	-11	10	5	2.3	3	5343	1
COc1ccc(-c2nnc(CSc3nc4ccccc4c(=O)n3CC(C)C)o2)cc1OC	-21	4	-1	0.6	8	5372	5
O=C(O)CN1C(=O)SC(Nc2ccccc2)C1=O (stereo unspecified)	-14	0	-6	0.4	-3	10859	3
O=C1CC(c2ccccc2)CC(O)=C1C=NCCN1CCOCC1 (stereo unspecified)	-18	8	11	3.8	0	5602	4
O=C(O)c1ccc(NN=Cc2cn(-c3ccccc3)nc2-c2cccs2)cc1	nt	2	-3	1.4	nt	nt	11
O=C(Cc1ccc(Cl)cc1)Nc1ccc2oc(=O)ccc2c1	0	13	4	1.4	2	3657	3
Cc1cc(N2CCN(c3cccc(C(F)(F)F)c3)CC2)n2nc(C)nc2n1	-15	nt	nt	-4.1	2	2229	-6
COc1cc(OC)c(N(C)S(=O)(=O)c2cccc(C(=O)OCC(=O)NCc3ccco3)c2)cc1Cl	-25	15	5	-1.7	3	4688	5
Cc1ccc(NC(=O)C(OC(=O)c2ccc(O)cc2)c2ccccc2)cc1Cl (stereo unspecified)	-13	3	4	-0.8	-5	2452	-5
COc1ccc(C(=O)n2cc(C(C)=O)c3ccccc32)cc1	-18	8	6	1.9	5	2788	-1
CC(=O)Nc1ccc(N2C(=O)CSC2c2ccccc2)cc1 (stereo unspecified)	-10	3	1	3.6	0	3852	2
O=C(COC(=O)c1ccc2ccccc2n1)c1ccccc1	-30	3	0	1.4	-1	4397	3
C=CCOC(=O)C1=CC(c2ccc(Br)cc2)CC(OCc2ccc(CO)cc2)O1 (stereo unspecified)	nt	5&21	0&1	6.0&8.3	nt	nt	1&10
Cc1ccc(C)c(OCCN2CCOCC2)c1	-6	6	7	0.9	-1	3945	3

Reprinted from the part before: 2 entries, then new ones.
SMILES	PrP 5UTR inh	Mtb hypoxia rep	Mtb hypoxia rep growth	Sa RN4220 lethal	BJeLR viability	Bead autofluor	Sa ugtP lethal
C=CCOC(=O)C1=CC(c2ccc(Br)cc2)CC(OCc2ccc(CO)cc2)O1 (stereo unspecified)	nt	5&21	0&1	6.0&8.3	nt	nt	1&10
Cc1ccc(C)c(OCCN2CCOCC2)c1	-6	6	7	0.9	-1	3945	3
O=c1ccc(C(F)(F)F)cn1Cc1cc(=O)n2cc(Br)ccc2n1	-33	6	-2	8.2	-2	5687	1
Cc1ccc2cccc(NC(=O)C(F)(F)F)c2n1	-11	5	4	2.5	2	9163	-5
CC(=O)c1ccc(N2CCN(CC(O)COC(c3ccccc3)c3ccccc3C)CC2)cc1 (stereo unspecified)	-6	-9	15	-0.6	-6	4031	-12
COc1cc(OC)c(NS(=O)(=O)c2cn(C)cn2)cc1Cl	-4	12	5	1.0	-7	5580	5
CC(C)c1ccccc1NC(=O)c1cnccn1	-10	13	7	3.8	0	25411*	2
COc1ccc(CNCC(O)(c2ccc(F)cc2)c2ccc(F)cc2)cc1	-24	6	-1	0.5	2	4729	-6
O=S(=O)(Nc1nc2ccccc2nc1NCc1ccco1)c1ccc(Cl)cc1	4	3	0	3.4	9	2952	-25
CCOC(=O)N1CCC2(O)CCCCC2C1c1ccc(F)cc1 (stereo unspecified)	-9	nt	nt	0.9	-3	5813	2
O=C(COC(=O)C1C2CC3OC(=O)C1C3C2)Nc1cccc(C(F)(F)F)c1 (stereo unspecified)	-17	3	9	8.5	4	3780	13
COCCCNC(=S)N1CCN(C)CC1	-19	-20	-6	2.9	2	4464	12
COc1ccc(S(=O)(=O)n2[nH]c(=O)c(CCO)c2C)c([N+](=O)[O-])c1	-3	14	-6	9.5	7	4680	15
Cc1ccc(C2N=C(N)Nc3nc(=O)c4ccccc4n32)cc1 (stereo unspecified)	-10	8	6	4.0	-7	6423	1
Cc1nc(C(=O)N2CCc3c([nH]c4ccccc34)C2c2ccccn2)cs1 (stereo unspecified)	-15	4	8	2.5	1	4748	-4
CN1CCN(S(=O)(=O)c2ccccc2)CC1	-10	7	0	7.7	5	3630	8
O=C(/C=C/c1ccc(Cl)cc1)NC(=S)N1C[C@H]2C[C@H](C1)c1cccc(=O)n1C2	-4	nt	nt	1.3	-4	5674	-6
Cc1ccc(C(=O)Nc2c3c(nn2-c2ccccc2)CS(=O)(=O)C3)cc1C	1	-1	3	0.7	-11	5431	-1
C[n+]1cccc(C=NNC(=O)CC23CC4CC(CC(C4)C2)C3)c1	nt	12	-2	5.2	nt	nt	1
CC[C@@]1(C(=O)OC)N[C@H](CN(C)C(=O)c2ccccc2)[C@@H]2C(=O)N(C)C(=O)[C@@H]21	-21	2	3	0.3	nt	3885	7
Cc1ccc(-c2nc(SCC(=O)N(C)C3CCS(=O)(=O)C3)[nH]c2-c2ccc(C)cc2)cc1 (stereo unspecified)	-11	-4	-5	7.5	-6	10723	55
CC(Sc1nnnn1C1CC1)C(=O)N1CC(=O)Nc2ccccc21 (stereo unspecified)	-11	14	2	4.1	nt	3439	3
